Screening results (PubChem)
BJeLR viability = BJeLR cell viability loss. BJeLR (HRASV12) viability, CellTiter-Glo ATP luminescence, 48 h; reference of the scale not given here. inhibition, % (no concentration beside the values). hit rate 0.17% among 300,000. AID 1554;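 active = replicate mean above 50%; inconclusive = above 50% but judged a plate artefact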;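 also: 50 nL library stock added to about 25 µL; numbers are from one replicate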
RN4220 kill = kills Staphylococcus aureus RN4220; inhibition, % (test concentration not listed); hit rate 0.33% among 330,000; S. aureus RN4220 growth, OD600, 16 h;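 active = z-score of -3 or lower and OD600 up to 0.18 on both plates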;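 also: plate controls were untreated cells for no effect and reference antibiotic for full effect; stock transfer was 100 nL into about 80 µL; one replicate is shown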
PrP 5UTR inh = suppresses PrP 5' UTR mRNA reporter expression | AID 488862 | inhibition, % (test concentration not listed) | hit rate 0.35% among 340,000 | cell-based PrP 5' UTR mRNA reporter, plate reader;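 active = every replicate at 50% or more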;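 also: 0 = median of the neutral control wells; tested in H4 reporter cells; numbers are from one replicate; inactives centre near -14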
ugtP null kill = growth inhibition of S. aureus ugtP deletion strain. S. aureus RN4220 ugtP deletion, OD600 growth, 16 h; some inactives read as strong as hits. growth inhibition, % (no concentration beside the values). hit rate 0.54% among 330,000;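 active = z-score under -3 and OD600 up to 0.15 on both plates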;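 also: plate controls were untreated wells for no effect and antibiotic for full effect; wells of about 80 µL received 100 nL stock; the first replicate is given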
Bead autofluor = flagged as autofluorescent in microsphere protease counterscreen | hit rate 3.1% among 360,000 | compound autofluorescence counterscreen, microsphere flow cytometry; stronger effect = higher value | fluorescence intensity (no concentration beside the values);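 active = at least 3 SD above the mean of all compounds, about 16000 in these data; inconclusive = too few beads counted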;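 also: 100 nL of 1 mM stock went into each well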
Mtb hypoxia rep = reduces hypoxia-regulated biosensor signal in M. tuberculosis | M. tuberculosis hypoxia-regulated fluorescent reporter, fluorescence | hit rate 0.1% among 300,000 | fluorescence inhibition, % (no concentration beside the values);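 active = 35 to 45% if threefold the growth effect, above 45% if 1.5-fold the growth effect; inactive = the rest, general growth blockers included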;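 also: wells of about 50 µL received 100 nL stock; 0% = vehicle wells and 100% = reference inhibitor wells; whole bacteria with a GFP reporter of the hypoxia response; strong numbers were not always called active; many hits fall short of the cut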
Mtb hypoxia rep growth = also measured in Mtb hypoxia rep; calls as there; growth inhibition, %; measured here: M. tuberculosis growth (absorbance);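 0% = vehicle and 100% = reference antibiotic; read after six days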
Starred values were filed as active, the others as inactive; ? = inconclusive; nt = no result given.

Every second line gives: BJeLR viability	RN4220 kill	PrP 5UTR inh	ugtP null kill	Bead autofluor	Mtb hypoxia rep	Mtb hypoxia rep growth
> C/C(=N\NC(=O)c1cccc(C)c1O)c1ccc(NC(=O)Cc2ccccc2)cc1
→ 6	nt	-14	nt	6002	nt	nt
> COc1cccc(NC(=O)CN(C)C(=O)/C=C/c2ccc3ccccc3n2)c1
→ 2	3.7	-5	-3	4732	5	-4
> O=C(COC(=O)c1cccc(S(=O)(=O)N2CCCCC2)c1)NCc1ccccc1
→ nt	3.6	-24	5	?	10	-2
> Cc1cc(N=Cc2c(O)ccc3cc(Br)ccc23)no1
→ -8	-1.8	-12	8	10594	-8	-6
> CCC(C(=O)O)n1nnc(-c2ccc(-c3ccc(OC)cc3)cc2)n1 (stereo unspecified)
→ -3	12	-10	11	9790	0	-9
> COCCCNC(=O)[C@H](CSCc1ccccc1)N1Cc2ccccc2C1=O
→ -1	2.4	-14	5	4972	15	4
> COC(=O)c1cc(OC)c(OC)cc1N=CC1=C(O)CC(C)(C)CC1=O
→ -7	0.0	-23	3	4934	nt	nt
> COc1ccc(OC)c(NC(=O)CN2C(=O)NC(C)(c3ccc4c(c3)OCCO4)C2=O)c1 (stereo unspecified)
→ nt	4.9	-18	7	3734	7	6
> NCCCC[C@@H]1NC(=O)c2cc([N+](=O)[O-])cc(F)c2NCCCC[C@@H](C(N)=O)NC(=O)[C@H](CCC(N)=O)NC1=O
→ 5	nt	-7	nt	2943	nt	nt
> CCC(C)[C@H](NC(=O)NCc1ccccn1)C(=O)OC (stereo partly specified)
→ 2	2.8	-1	2	16131*	-3	-9
> COc1cc([N+](=O)[O-])ccc1NC(=O)COC(=O)c1n[nH]c2ccccc12
→ -10	10	-49	-2	2594	2	-3
> CCO[C@@H]1OC(C(N)=O)=C[C@H](C(C)(C)C)[C@H]1CCCO
→ 3	nt	-7	nt	2805	nt	nt
> O=C(N/N=C/C=C\c1ccccc1[N+](=O)[O-])c1ccncc1
→ 8	nt	-6	nt	3468	nt	nt
> CC(C)(C)C(=O)CNCC(=O)C(C)(C)C
→ 6	5.0	-10	2	2606	1	1
> COc1cc(C=Nn2c(SC)nnc(C(C)(C)C)c2=O)ccc1O
→ nt	4.3	nt	0	nt	0	-5
> COc1ccc(S(=O)(=O)NCCCCOc2ccc(Cl)cc2)cc1
→ -10	-2.8	-6	5	3450	3	-7
> OC(CNCc1ccccc1F)COc1cccc2ccccc12 (stereo unspecified)
→ -2	0.0	-9	-3	3445	6	9
> COC(=O)CN1C(=O)C2C(C=Cc3ccccc3)N3C(=O)CN(Cc4ccc(-c5ccccc5)cc4)C(=O)[C@@]3(C)C2C1=O (stereo partly specified)
→ nt	6.5	nt	13	nt	11	11
> O=S(=O)(NCc1ccccn1)c1cc(OCC(F)(F)F)ccc1OCC(F)(F)F
→ 3	1.8	-17	-3	5433	-6	-4
> CC1CCCN(S(=O)(=O)c2ccc([N+](=O)[O-])cc2)C1 (stereo unspecified)
→ 7	17	7	5	4102	0	10
> N=c1c2c3c(sc2ncn1N)CCCC3
→ 2	8.1	10	6	4695	-1	8
> O=C(NNC(=O)C1CCN(S(=O)(=O)c2ccccc2)CC1)c1ccccc1O
→ 6	2.0	3	-1	4285	1	-4
> O=C(Nc1cccc(Cl)c1)c1ccc(Cn2cc(Cl)cn2)cc1
→ 1	-1.8	-13	-20	2160	18	-1
> CCS(=O)(=O)N1Cc2ccccc2CC1C(=O)Nc1ccc(OC)cc1 (stereo unspecified)
→ -1	0.6	-20	2	3409	8	9
> Cc1cc(=O)oc(C)c1C(=O)N1CCN(Cc2ccc3c(c2)OCO3)CC1
→ -5	2.7	-29	3	2816	nt	nt
> O=C(c1cccc(C(F)(F)F)c1)C1CCCN(C(=O)/C=C/c2cnc[nH]2)C1 (stereo unspecified)
→ 3	1.6	-7	10	5654	5	-9
> COc1ccc(OC)c(C2C(C(=O)c3cccs3)=C(O)C(=O)N2c2cc(C)on2)c1 (stereo unspecified)
→ -9	0.6	-34	-3	4171	nt	nt
> O=C(Nc1ccccc1Cl)c1ccc(COc2ccc3c(c2)CCC3)cc1
→ 0	-0.6	-44	1	1918	-5	5
> Clc1ncn(C23CC4CC(CC(C4)C2)C3)n1
→ -9	3.4	-12	-8	4745	nt	nt
> COC(=O)Cc1[nH]n(-c2nc3ccccc3s2)c(=O)c1C(C)=Nc1ccc(OC)cc1
→ -10	6.8	80*	4	4301	12	12
> O=Cc1s/c(=N\S(=O)(=O)c2ccccc2)n(CCCCl)c1Cl
→ 35	nt	-43	nt	4127	nt	nt
> Cc1nn(CC(=O)N2CCCCC2)c(=O)c2nn(-c3ccccc3)c(C)c12
→ -4	0.2	-9	0	5653	-4	11
> CC(C)C(=O)Nc1nc2cc3c(cc2s1)OCCO3
→ 10	1.8	-31	7	4645	-2	-9
> COc1cccc(CNC(=O)N[C@@H](CC(C)C)C(=O)O)c1
→ -3	nt	-24	nt	2913	nt	nt
> C/C(C=NNC(=O)c1ccc(Br)cc1)=C\c1ccccc1
→ nt	-4.0	nt	-8	nt	1	4
> COCCNCc1cc(C)n(-c2cc(S(=O)(=O)N3CCOCC3)ccc2N2CCCC2)c1C
→ nt	-4.0	-15	9	6086	-2	1
> O=C(CN1CCN(C/C=C/c2ccccc2)CC1)Nc1ccccc1C(=O)NC1CC1
→ -6	1.7	-20	5	4234	-4	-10
> O=C(O)C(Cc1cnc[nH]1)NS(=O)(=O)c1ccc(Br)cc1 (stereo unspecified)
→ -13	1.4	-8	4	3302	3	11
> CCn1nc(C)cc1C(=O)OCC(=O)c1ccc(Cl)cc1
→ 4	2.9	-17	6	5437	8	6
> COc1ccc2c(c1)OCC1C2N2C(=O)c3ccc(F)cc3NC(=O)[C@@]2(C)C1c1ccccc1 (stereo partly specified)
→ nt	-9.8	nt	12	nt	2	16
> COc1ccc(CCC(C)NCc2cccc(Br)c2)cc1 (stereo unspecified)
→ 4	2.4	-19	0	3637	7	-4
> Cc1ccc(CNC(=O)CC2(CC3=NS(=O)(=O)c4ccccc4N3)CCCC2)cc1
→ 7	-3.3	-6	-6	5840	-7	-10
> CCOC(=O)Cn1nc(NC(=O)COc2ccc(F)cc2)cc1C
→ 10	-2.7	-10	-7	?	-10	-5
> Cc1cc(C)n2nc(C(=O)OCC(=O)N(C)CC(=O)Nc3ccccc3Cl)nc2n1
→ -8	3.5	-13	3	6155	-1	6
> Cc1ccccc1OCCNC(=O)c1ccco1
→ 6	4.3	-38	1	6624	26	17
> CC(OC(=O)/C=C/c1cccc(Cl)c1)C(=O)NC1CCCCC1C (stereo unspecified)
→ -13	4.1	-7	0	6500	10	9
> S=C(NCCc1ccccc1)NN=CC1CCCCC1
→ nt	8.3	nt	1	nt	-10	-3
> CNc1snc(C)c1C(=O)OCC(=O)Nc1ccc(C)cc1F
→ nt	-1.4	-7	-1	5756	12	11
> Cc1c(C(=O)O)cccc1-n1c(C)cc(/C=N/Nc2ccc([N+](=O)[O-])cn2)c1C
→ 1	nt	-14	nt	5739	nt	nt
> COc1cccc(C(=O)NCCN2C(=O)S/C(=C/c3cccs3)C2=O)c1OC
→ -4	13	-45	7	3794	13	1
> COc1ccc(N2CCN(CCCNC(=O)C3(S(=O)(=O)c4ccc(Cl)cc4)CC3)CC2)cc1
→ -4	1.6	-20	3	26083*	4	-1
> COc1ccc(-c2n(Cc3ccccc3)c3ccccc3[n+]2Cc2ccccc2)cc1
→ 19	17	-9	15	2134	19	22
> O=C(NC(Cc1ccc2c(c1)OCO2)C(=O)NC(Cc1ccccc1)C(=O)O)c1ccccc1 (stereo unspecified)
→ 20	3.7	-36	3	7781	9	11
> COc1cc2ccccc2cc1C(=O)N(CCN(C)C)c1nc2ccc(C)cc2s1
→ 6	-13	-12	-17	4419	2	3
> Cc1nn(Cc2ccccc2)c(C)c1C(=O)Nc1ccc(N2CCOCC2)cc1
→ 10	2.7	-44	2	3848	18	15
> Cc1ccc(-c2nnn(Cc3nc(N)nc(N4CCOCC4)n3)n2)cc1
→ 2	3.3	-1	-4	23278*	18	6
> CC(C)(C)c1ccc(SCCc2cccnc2)cc1
→ -11	7.6	-110	34	3924	4	-1
> Cc1cccc(C(=O)NCc2ccco2)c1
→ -10	2.2	-25	4	3778	nt	nt
> Cc1ccc2cc(CCNS(=O)(=O)c3ccc(F)cc3)c(=O)[nH]c2c1C
→ 4	nt	22	nt	5539	nt	nt
> Nc1c(C(=O)N/N=C/c2cccnc2)oc2nc(-c3ccccc3)cc(-c3ccco3)c12
→ -6	nt	-10	nt	3290	nt	nt

Only BJeLR viability, for some of the entries so far:
Molecule	BJeLR viability
O=C(CN1CCN(C/C=C/c2ccccc2)CC1)Nc1ccccc1C(=O)NC1CC1	-6
Cc1c(C(=O)O)cccc1-n1c(C)cc(/C=N/Nc2ccc([N+](=O)[O-])cn2)c1C	1

Going on with the list:
Every second line gives: BJeLR viability	RN4220 kill	PrP 5UTR inh	ugtP null kill	Bead autofluor	Mtb hypoxia rep	Mtb hypoxia rep growth
> CCN(CC)c1ccc(NC(=O)COC(=O)CCC(=O)c2cccs2)cc1
→ nt	2.2	-3	5	?	5	7
> COc1ccccc1N1CC(C)(C)C(=O)N(C(=O)c2ccc(C)cc2)C1=S
→ 0	5.2	-25	10	5866	9	4
> C=CCn1c(C)nnc1SCC(=O)c1[nH]c(C)c(C(C)=O)c1C
→ -9	9.7	-10	4	4390	6	13
> CN(C(=O)COC(=O)/C=C/c1ccc2c(c1)OCO2)c1c(N)n(Cc2ccccc2)c(=O)[nH]c1=O
→ 7	-1.6	-14	-4	?	-7	-2
> Cc1cccc(NC(=O)/C(C#N)=C\c2ccc(C(=O)O)cc2)c1
→ -3	2.2	-28	3	2161	-6	-5
> c1cnc(NC2C3CC4CC(C3)CC2C4)nc1 (stereo unspecified)
→ -2	1.9	-31	-7	11109	-2	-2
> COc1ccc(-c2noc(CCC(=O)NCc3cc(Br)ccc3OC)n2)cc1
→ -2	-1.4	-23	15	2704	nt	nt
> O=C(Nc1ccccn1)c1ccc(-c2ccccc2)cc1
→ 5	11	48	-15	3894	6	4
> CC1=C(C#N)C(NC(=O)c2ccc(C)cc2)(C(F)(F)F)C(=O)N1 (stereo unspecified)
→ -3	32	-10	-1	19042*	8	5
> COc1ccc(NC(=O)Nc2c(C)n(C)n(-c3ccccc3)c2=O)c(OC)c1
→ 8	3.2	-16	7	5963	-2	1
> CCc1ccc(NC(=S)N2CCCCCCC2)cc1
→ -12	3.6	-41	5	4502	-2	1
> Cc1cc(C(=O)NNC(=O)/C=C/c2ccco2)c(C)o1
→ nt	6.1	6	2	4866	5	7
> O=C(COC(=O)C1=COCCO1)Nc1cccc(Oc2ccccc2)c1
→ -2	1.1	-24	18	3478	4	5
> CC[C@H](C)[C@@H](CN[C@H](CCCCNC)CNC)NCC1CCCC1
→ -7	nt	-9	nt	4367	nt	nt
> CCn1c(=O)c(C(=O)NNC(=O)Cc2ccccc2)c(O)c2ccccc21
→ -4	15	-28	-4	4011	4	7
> Cn1cccc1C(=O)NC(=O)COC(=O)c1cc(Cl)ccc1[N+](=O)[O-]
→ -3	4.4	-13	-3	5059	-1	4
> Cc1ccccc1Cn1ccc(NC(=O)c2cc3nc(-c4ccco4)cc(C(F)(F)F)n3n2)n1
→ -3	nt	-16	nt	2854	nt	nt
> Cc1cc(C)c(S(=O)(=O)NCc2cn3c(C)csc3n2)cc1C
→ -2	5.0	-3	-2	2254	8	11
> CCN(C(=O)c1ccc(=O)n(C)n1)c1c(N)n(Cc2ccccc2)c(=O)[nH]c1=O
→ nt	4.6	-21	3	3384	11	8
> COc1ccccc1N1CCN(/N=C(\C)c2ccccc2O)CC1
→ -3	nt	-10	nt	10567	nt	nt
> COc1cc(C=NO)cc(Br)c1OCC(=O)NCc1ccccc1
→ nt	9.4	nt	16	nt	12	6
> O=c1cc(CSc2nnnn2-c2ccccc2)nc2scc(-c3ccccc3)n12
→ -11	10	-3	7	3301	nt	nt
> COC(=O)C(Cc1c[nH]c2ccccc12)NC(=O)CNC(C)=O (stereo unspecified)
→ 7	3.5	-13	-3	2834	6	4
> Cc1ccc(-c2nc3c(=O)n(-c4ccccc4)c4c(c(=O)n(C)c(=O)n4C)c3o2)cc1
→ 7	0.9	-4	0	4681	8	9
> Cc1cc(C)nc(SC(C(=O)O)c2ccccc2)n1 (stereo unspecified)
→ -11	5.7	-1	3	2059	5	4
